Sfp PPTase inh: qHTS Assay for Inhibitors of Bacillus subtilis Sfp phosphopantetheinyl transferase (PPTase). Biochemical Sfp PPTase activity, qHTS. Potency, µM, for the others: max response, negative = inhibition, hits mostly inhibitors. 4'-phosphopantetheinyl transferase ffp (Bacillus subtilis), Q9F4F7. 310,000 tested, 3.5% active; active means well fitted inhibition curve with a large enough effect; inconclusive means small, poorly fitted or top-dose-only effect, or another doubt; inactive means no such curve, though single readings can be large or run the other way;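 further: the enzyme is Sfp with the accession as filed and its product quenches rhodamine fluorescence; potency means the concentration at half of the fitted maximal effect; 0% = enzyme reaction without inhibitor and -100% = no enzyme wells; top concentration of the series not given in the record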
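With Hepes-Na pH 7.6 buffer containing 10 mM MgCl2, Sfp (15 nM) modified BHQ-2-YbbR (12.5 uM) using rhodamine-CoA (5 uM). Two reads 30 minutes apart at 525/598 nm yielded each well's rate.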
TRPV1 PAM: HTS Assay for Compounds that Act as Potentiators of the Vanilloid Receptor 1. Transient receptor potential cation channel subfamily V member 1 (Homo sapiens), Q8NER1. TRPV1-expressing cells, Fluo-8 calcium influx, capsaicin EC20 potentiation; host cell line not named in the record; control for the full effect not named in the record. potentiation, % at 8.33 µM. 320,000 tested, 0.02% active; active means potentiation above 80%; inconclusive means 30% to 80%; inactive means below 30%; further: 0% is about no effect
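TRPV1-expressing cells were cultured overnight at 35.5C and loaded with Fluo-8 calcium dye for 40 to 90 min at room temperature. After a 10 s baseline, compound was added and calcium influx was read kinetically for 3 min (ex 480/em 520 nm).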
D2 PAM: Beta-Arrestin HTS for Positive Allosteric Modulators of the Human D2 Dopamine Receptor: Potentiators. D(2) dopamine receptor (Homo sapiens), P14416. DiscoveRx D2 beta-arrestin cells, luminescence, 90 min; 100% = 57 uM dopamine signal. potentiation, % (concentration not given with the values). 360,000 tested, 0.23% active. AID 624464, 2012; active = potentiation of 50% or more; inconclusive = 30% to 50%; inactive = 30% or less;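 further: compound concentration not given in the record; tested on top of an EC20 dose of dopamine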
Target sequence (P14416 whole entry, looked up): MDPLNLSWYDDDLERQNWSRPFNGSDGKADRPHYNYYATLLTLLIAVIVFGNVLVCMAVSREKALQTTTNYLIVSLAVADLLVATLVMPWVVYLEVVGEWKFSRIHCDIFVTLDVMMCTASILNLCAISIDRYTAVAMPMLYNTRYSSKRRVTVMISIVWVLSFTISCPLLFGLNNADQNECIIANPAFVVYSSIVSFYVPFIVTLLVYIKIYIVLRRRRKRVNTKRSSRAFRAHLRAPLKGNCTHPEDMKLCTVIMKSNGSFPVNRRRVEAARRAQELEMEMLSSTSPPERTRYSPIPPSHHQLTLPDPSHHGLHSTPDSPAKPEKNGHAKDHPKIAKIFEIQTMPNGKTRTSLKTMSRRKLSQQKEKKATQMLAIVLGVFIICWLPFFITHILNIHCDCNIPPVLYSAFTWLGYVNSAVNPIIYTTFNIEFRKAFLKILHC
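PathHunter beta-arrestin assay in DiscoveRx D2 cells. Compounds were added with an EC20 of dopamine (50 nM final) for 90 min at 37 deg C. Luminescence was read 1 h after detection reagent, with 57 uM dopamine as the EC100 control.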
Six1-Eya2 blk: qHTS Assay for Inhibitors of the Six1/Eya2 Interaction; Homeobox protein SIX1 (Homo sapiens) + Protein phosphatase EYA2 (Homo sapiens), …; AlphaScreen GST-Six1/His-Eya2 binding, biochemical; stronger effect = lower value; control for the full effect not named in the record; activity change, % (test concentration not listed); 360,000 tested, 0.56% active; AID 651725, 2012; in the data active = activity change below about -65%; inconclusive = about -30% to -65%; inactive = above about -30%; further: on the % scale 0 is the no-effect control and ±100 the full control effect; compound concentration not given in the record
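Homogeneous AlphaScreen proximity assay pairing GST-Six1 with His-tagged Eya2 (added as 5X mix: 250 nM and 500 nM) in 50 mM Tris pH 8.0, 300 mM NaCl, 1 mM TCEP. Glutathione donor and nickel acceptor beads; 1 h, 37 °C, dark.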
CtBP-E1A inh: qHTS Assay for Inhibitors of the CtBP/E1A Interaction; activity change, % (test concentration not listed); 340,000 tested, 0.49% active; AID 651724, 2012; AlphaScreen GST-E1A/His-CtBP binding, 1536-well; stronger effect = lower value; control for the full effect not named in the record; in the data active means activity change below about -65%; inconclusive means about -30% to -65%; inactive means above about -30%; further: on the % scale 0 is the no-effect control and ±100 the full control effect; compound concentration not given in the record
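Homogeneous bead-based format: GST-tagged E1A captured on glutathione donor beads, His-tagged CtBP on nickel acceptor beads; compounds precede bead addition by 2 h at 37 °C.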
PINK1 expr mod: A Quantitative High throughput Screen to Identify Chemical Modulators of PINK1 Expression | PINK1 immunofluorescence, high-content cytometry, 24 h | Potency, µM (doses to about 76.6 µM), without a hit: at the top dose activation (PINK1 increase), usual class: activators | 410,000 tested, 0.2% active | AID 624263, 2012; active = well fitted activation curve with a large enough effect; inconclusive = small, poorly fitted or top-dose-only effect; inactive = flat fitted curve, though single readings scatter; cell line not stated here;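 further: potency means the concentration at half of the fitted maximal effect; % of control where 0% means no effect; nearly all actives have a fitted effect of over 65% in size; a mitochondrial uncoupler was the plate control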
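Stable cell line, 250 cells/well, 12 h attachment; compounds pinned at 5 concentrations, 24 h; CCCP control. Fixed with nuclear dye, primary antibodies 12 h at 10 degrees C, secondary plus cell stain; laser-scanning cytometer read.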
D2 ag: Beta-Arrestin HTS for Positive Allosteric Modulators of the Human D2 Dopamine Receptor: Agonists. 360,000 tested, 0.084% active. DiscoveRx PathHunter D2 beta-arrestin, luminescence, 90 min; 100% = 57 uM dopamine signal. activation, % (test concentration not listed). D(2) dopamine receptor (Homo sapiens), P14416; in the data active = activation above about 40%; inconclusive = about 15% to 40%; inactive = below about 15%; further: compound concentration not given in the record; the text of the record calls up to 30% inactive
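Agonist mode: compounds alone added to overnight-plated D2 PathHunter cells for 90 min at 37 C, with 57 uM final dopamine (EC100) defining full response. Beta-arrestin recruitment detected by chemiluminescent reagent, read after 1 h at ambient temperature.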
Numbers without * were called inactive; & = joins results of further samples; [ ] = dose if it differs, or a comment.

`CCc1ccc(N2CC(C(=O)OCC(=O)NNC(=O)c3ccccc3)CC2=O)cc1` (stereo not given) gave TRPV1 PAM 9, D2 PAM 3, Six1-Eya2 blk 1, CtBP-E1A inh 1, PINK1 expr mod 1.9% and D2 ag -5.5.
CCCN(CCO)Cc1cccc(Oc2ccccc2)c1 was read as Sfp PPTase inh 15%, TRPV1 PAM -2, D2 PAM -10, Six1-Eya2 blk 1, CtBP-E1A inh 2, PINK1 expr mod -5.2%[38.3 µM] and D2 ag -1.1.
For Cc1ccccc1Nc1nc(N)nc(COC(=O)C(NC(=O)c2ccco2)C(C)C)n1 (stereo not given) the results were Sfp PPTase inh -13%, TRPV1 PAM -15, D2 PAM 4, Six1-Eya2 blk -1, CtBP-E1A inh 2, PINK1 expr mod inconclusive and D2 ag 2.5.
For CCCCCCn1c2c(c(=N)c3c1CCC3)CCC2 the results were Sfp PPTase inh 8%, TRPV1 PAM -17, D2 PAM -5, Six1-Eya2 blk -10, CtBP-E1A inh -12, PINK1 expr mod 6.5%[38.3 µM] and D2 ag -4.2.
NC(=O)c1nsc(C(=O)N(CC(=O)NC2CCCCC2)c2cccc(F)c2)c1N was read as Sfp PPTase inh 8%, TRPV1 PAM 18, D2 PAM -2, Six1-Eya2 blk -3, CtBP-E1A inh 0, PINK1 expr mod 4.5% and D2 ag 4.5.
Screening CCSc1nc(C2CC2)cc(-c2cccs2)c1C#N returned Sfp PPTase inh -10%, TRPV1 PAM 7, D2 PAM -12, Six1-Eya2 blk 60, CtBP-E1A inh 78, PINK1 expr mod inconclusive and D2 ag 0.3.
N#C/C=C(/N)c1ccc(Br)cc1 was read as Sfp PPTase inh 4%, TRPV1 PAM 13, D2 PAM 9, Six1-Eya2 blk 12, CtBP-E1A inh 5, PINK1 expr mod 1.4% and D2 ag -3.5.
Screening CC(C)(C)C(=O)NNC(=O)c1cc(C(C)(C)C)nn1Cc1ccccc1 returned Sfp PPTase inh 14%, TRPV1 PAM -3, D2 PAM 0, Six1-Eya2 blk -2, CtBP-E1A inh 12, PINK1 expr mod 3.7% and D2 ag 2.6.
For Cn1c2c(c(=O)n3ncnc13)CCCC2 the results were Sfp PPTase inh 17%, TRPV1 PAM -2, D2 PAM -1, Six1-Eya2 blk -8, CtBP-E1A inh 0, PINK1 expr mod 2.4% and D2 ag 1.0.
`CC(C)c1nc(CNC(=O)C2CCC(=O)N(Cc3ccc(Cl)cc3)C2)no1` (stereo not given) gave Sfp PPTase inh 12%, TRPV1 PAM 8, D2 PAM -10, Six1-Eya2 blk 7, CtBP-E1A inh -8, PINK1 expr mod 0.5% and D2 ag 8.9.
Screening COc1ccc(-n2c(C)cc(C(=O)COC(=O)c3cc(NC(=O)c4cccs4)c(OC)c(OC)c3)c2C)cc1 returned Sfp PPTase inh 2%, TRPV1 PAM 3, D2 PAM 1, Six1-Eya2 blk -4, PINK1 expr mod -2.1% and D2 ag -2.3.
`CNC(=O)C(=O)N/N=C/c1ccc(Br)cc1` gave Sfp PPTase inh 3%, TRPV1 PAM 5, D2 PAM -6, Six1-Eya2 blk 4, PINK1 expr mod 1.3% and D2 ag -4.9.
For COc1ccc(-c2nnc(NC(=O)CSc3ccc(C)cc3)s2)cc1OC the results were Sfp PPTase inh 4%, TRPV1 PAM 4, D2 PAM 7, Six1-Eya2 blk 3, CtBP-E1A inh 6, PINK1 expr mod 11% and D2 ag 0.0.
Cc1cc(C)c2c(=O)n(CC(=O)Nc3cccc(Cl)c3C)sc2n1 was read as Sfp PPTase inh 2.5µM*, TRPV1 PAM -27, D2 PAM -13, Six1-Eya2 blk -20, CtBP-E1A inh -6, PINK1 expr mod 5.1% and D2 ag -2.9.
For CC(=O)c1c(O)cc2c3c1OC(C)(C)C1CCC(C)(CC31)O2 (stereo not given) the results were D2 PAM 3, Six1-Eya2 blk 3, CtBP-E1A inh -14, PINK1 expr mod 0.1% and D2 ag 0.3.
Screening COC(=O)c1cc(S(=O)(=O)NCc2cc(OC)c(OC)c(OC)c2)cn1C returned Sfp PPTase inh 9%, TRPV1 PAM 0, D2 PAM 13, Six1-Eya2 blk 0, CtBP-E1A inh 7, PINK1 expr mod -1.8% and D2 ag -2.3.
For Cc1cc(C)c2cc(C(c3nnnn3CC3CCCO3)N3CCN4CCCC4C3)c(=O)[nH]c2c1 (stereo not given) the results were Sfp PPTase inh 10%, TRPV1 PAM -3, D2 PAM -12, Six1-Eya2 blk 1, CtBP-E1A inh 1, PINK1 expr mod 1.8%[38.3 µM] and D2 ag -0.2.
O=C(NCc1n[nH]c(=S)n1-c1ccccc1)c1ccc(S(=O)(=O)N2CCCCC2)cc1 was read as Sfp PPTase inh -11%, TRPV1 PAM 4, D2 PAM -3, Six1-Eya2 blk 11, CtBP-E1A inh 10, PINK1 expr mod 3.4% and D2 ag -7.1.
CC1(OC(=O)C2CCCC2)C(=O)C=C2C=C(c3ccsc3)N(Cc3ccc4c(c3)OCO4)C=C2C1=O (stereo not given) was read as Sfp PPTase inh -17%&-7%, TRPV1 PAM -20, D2 PAM 2, Six1-Eya2 blk -20, CtBP-E1A inh -15, PINK1 expr mod 0.5% and D2 ag 7.9.
COc1ccc2c(c1OC)C(=O)N(c1ccc(C)cc1)C2=O was read as Sfp PPTase inh 6%, TRPV1 PAM 0, D2 PAM -17, Six1-Eya2 blk 3, CtBP-E1A inh 0, PINK1 expr mod -1.7% and D2 ag -4.6.
`CC(=O)CCN1CCOCC1` gave Sfp PPTase inh -9%, TRPV1 PAM 3, D2 PAM -20, Six1-Eya2 blk 3, CtBP-E1A inh 3, PINK1 expr mod 7.6%[38.3 µM] and D2 ag -1.5.
CCOC(=O)c1c(NC(=O)C(NCCN(C)C)c2ccccc2)sc2c1CCCC2 (stereo not given) was read as Sfp PPTase inh -16%, TRPV1 PAM 4, D2 PAM -14, Six1-Eya2 blk -19, CtBP-E1A inh -21, PINK1 expr mod 2.0% and D2 ag 3.7.
For CC(C)C(=O)N1CCCC1(C)C(=O)N(C)Cc1cccc2ccccc12 (stereo not given) the results were D2 PAM -1, Six1-Eya2 blk 1, CtBP-E1A inh 1, PINK1 expr mod -0.7% and D2 ag -3.5.
`CCOc1ccccc1Nc1ccc(C(=O)O)cc1[N+](=O)[O-]` gave Sfp PPTase inh 5%, TRPV1 PAM -1, D2 PAM -5, Six1-Eya2 blk -6, CtBP-E1A inh -5, PINK1 expr mod 0.5% and D2 ag -9.8.
`Cc1ccc(C(=O)NC(C)c2ccc3c(c2)OCO3)s1` (stereo not given) gave Sfp PPTase inh 12%, TRPV1 PAM -19, D2 PAM -7, Six1-Eya2 blk 0, PINK1 expr mod -1.4% and D2 ag 5.9.
Screening Cn1c(=O)c(=O)n(C)c2cc(N3CCCC3)c(NS(=O)(=O)c3ccc(Cl)cc3)cc21 returned Sfp PPTase inh -10%, TRPV1 PAM 27, D2 PAM 2, Six1-Eya2 blk inconclusive, PINK1 expr mod 1.5% and D2 ag 13.
`CC(C)(C)C(=O)NNC(=O)C1CC1(c1ccccc1)c1ccccc1` (stereo not given) gave Sfp PPTase inh 9%, TRPV1 PAM 7, D2 PAM 4, Six1-Eya2 blk -3, CtBP-E1A inh 12, PINK1 expr mod 1.2% and D2 ag -4.2.
Screening Cc1cccc(C)c1Nc1c(-c2ccsc2)nc2ncccn12 returned Sfp PPTase inh -23%, TRPV1 PAM 8, D2 PAM 6, Six1-Eya2 blk -6, CtBP-E1A inh 13, PINK1 expr mod 0.3% and D2 ag 6.0.
CC(C)C(NC(=O)OCc1ccccc1)C(=O)NCC(=O)OC(C)(C)C (stereo not given) was read as Sfp PPTase inh 7%, TRPV1 PAM -8, D2 PAM -4, Six1-Eya2 blk 4, CtBP-E1A inh 9, PINK1 expr mod 1.6% and D2 ag -0.7.
For CCNC(=S)NC1CC2CCCC(C1)N2Cc1ccco1 (stereo not given) the results were Sfp PPTase inh 5%, TRPV1 PAM -9, D2 PAM -25, Six1-Eya2 blk 0, CtBP-E1A inh 9 and D2 ag 2.1.
For O=C1c2cc([N+](=O)[O-])cc3cc([N+](=O)[O-])cc(c23)C(=O)N1c1ccccn1 the results were Sfp PPTase inh -1%, TRPV1 PAM 3, D2 PAM 9, Six1-Eya2 blk -7, CtBP-E1A inh -3, PINK1 expr mod -4.2% and D2 ag 11.
Screening CCC(=O)NCCSc1c[nH]c2ccccc12 returned Sfp PPTase inh -12%, TRPV1 PAM -5, D2 PAM -15, Six1-Eya2 blk -1, CtBP-E1A inh 6, PINK1 expr mod -1.1% and D2 ag -1.2.
`CCCN1C(=O)c2cc(C(=O)Nc3ccccc3OC)ccc2C1Nc1ccccc1OC` (stereo not given) gave Sfp PPTase inh -12%, TRPV1 PAM 8, D2 PAM 0, Six1-Eya2 blk -10, CtBP-E1A inh -15, PINK1 expr mod -0.7% and D2 ag -2.9.
For OCC#Cc1ncc(C(F)(F)F)cc1Cl the results were Sfp PPTase inh 17%, TRPV1 PAM 6, D2 PAM -3, Six1-Eya2 blk -8, CtBP-E1A inh 4, PINK1 expr mod 2.2% and D2 ag -3.5.
Screening Cc1cc(C)n(-c2ccc(C(=O)OCC(=O)NC(c3ccccc3)c3ccccc3)cc2)n1 returned Sfp PPTase inh 1%, TRPV1 PAM -6, D2 PAM -2, Six1-Eya2 blk 27, CtBP-E1A inh 0, PINK1 expr mod 11% and D2 ag 0.7.
COc1ccc(N2CCCn3c2nc2c3c(=O)n(CCc3ccccc3)c(=O)n2C)cc1 was read as Sfp PPTase inh -7%, TRPV1 PAM -19, D2 PAM 14, Six1-Eya2 blk 9, CtBP-E1A inh -2, PINK1 expr mod 11% and D2 ag -0.8.

Random excerpt: two records from the list
`Cc1ccc(C(=O)NC(C)c2ccc3c(c2)OCO3)s1` (stereo not given) gave Sfp PPTase inh 12%, TRPV1 PAM -19, D2 PAM -7, Six1-Eya2 blk 0, PINK1 expr mod -1.4% and D2 ag 5.9.
For CCNC(=S)NC1CC2CCCC(C1)N2Cc1ccco1 (stereo not given) the results were Sfp PPTase inh 5%, TRPV1 PAM -9, D2 PAM -25, Six1-Eya2 blk 0, CtBP-E1A inh 9 and D2 ag 2.1.
